Source: PubChem BioAssay (Center for Chemical Genomics, University of Michigan)
CDC25B-CDK2 inh – human CDC25B-CDK2/CyclinA binding inhibition | HTRF CDC25B-CDK2/CyclinA binding, anti-His/anti-Flag; active compounds read high | z-score (test concentration not listed) | hit rate 0.72% among 94,000 | AID 1259370;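 further: score is relative to mean and SD of negative controls; strong numbers were not always called active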
HIV TAR-Tat – HIV-1 TAR-Tat binding disruption; hit rate 0.6% among 100,000; HIV-1 TAR RNA, Tat peptide displacement FRET; active compounds read high; z-score (concentration not given with the values);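 further: score is relative to mean and SD of negative controls; some compounds called inactive have numbers as strong as hits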
Numbers without * were called inactive; / = no result given.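 How the source made its calls: active means z-score from 3 up in half or more of its runs; inactive means the rest.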

A first look:
SMILES | CDC25B-CDK2 inh | HIV TAR-Tat
CCOC(=O)c1oc2ccc(S(=O)(=O)n3nc(-c4ccc(Cl)cc4)cc3N)cc2c1C | -0.69 | 1.16
COc1ccc(C2CC(=O)N3CN(c4ccccc4)CSC3=C2C#N)c(OC)c1 (centres undefined) | 5.22* | -1.41
O=S(=O)(NCCc1csc2nc(-c3ccccc3)nn12)c1ccccc1 | / | 1.99
COc1ccc(-c2noc(N3CCN(C)CC3)n2)cc1OC | / | 0.09
Cc1cc2c(cc3c(=O)n(CC(=O)NC4CCCC(C)C4C)ncn32)s1 (centres undefined) | -1.87 | -0.21
CCc1ccc(NC(=O)CCN2C(=O)c3cccnc3C2=O)cc1 | -0.54 | /
CCN(CC)CCNS(=O)(=O)c1ccc2c(c1)CC(C)N2C(=O)C1CC1 (centres undefined) | / | -0.22
COc1ccc(-c2nn(C)c3sc(C(=O)NC4CC4)cc23)cc1OC | -0.84 | /
CNC(=O)Cn1c(=O)c2cccn2c2cccnc21 | / | -0.29
O=C1NC(c2ccc(OCc3ccccc3)cc2)C(C(=O)c2cccs2)C(O)(C(F)(F)F)N1 (centres undefined) | 1.09 | /
O=S(=O)(NCC(c1ccco1)N1CCN(c2ccccc2)CC1)c1ccc2c(c1)OCCO2 (centres undefined) | / | 1.31
Cc1cc(NC(=O)CSc2nc3nccnc3c(=O)n2CC2CCCO2)n[nH]1 (centres undefined) | -0.97 | 1.23
CC(C)(C)c1cc(C(=O)NNC(=O)c2ccc(C(F)(F)F)cc2)no1 | -0.55 | /
Cc1nc2sccn2c1C(=O)NN | 15.1* | /
Cn1c(=O)c2c(nc(CN3CCN(Cc4ccccc4)CC3)n2CC(=O)c2ccccc2)n(C)c1=O | -0.99 | /
Cc1cnc(N2CCN(NC(=S)Nc3cccnc3)CC2)c(Cl)c1 | -0.67 | /
CC(NS(=O)(=O)c1ccc(F)cc1)c1nc(-c2ccc(C(C)(C)C)cc2)no1 (centres undefined) | 0.02 | 1.38

This part in full, repeating the preview:
SMILES | CDC25B-CDK2 inh | HIV TAR-Tat
CCOC(=O)c1oc2ccc(S(=O)(=O)n3nc(-c4ccc(Cl)cc4)cc3N)cc2c1C | -0.69 | 1.16
COc1ccc(C2CC(=O)N3CN(c4ccccc4)CSC3=C2C#N)c(OC)c1 (centres undefined) | 5.22* | -1.41
O=S(=O)(NCCc1csc2nc(-c3ccccc3)nn12)c1ccccc1 | / | 1.99
COc1ccc(-c2noc(N3CCN(C)CC3)n2)cc1OC | / | 0.09
Cc1cc2c(cc3c(=O)n(CC(=O)NC4CCCC(C)C4C)ncn32)s1 (centres undefined) | -1.87 | -0.21
CCc1ccc(NC(=O)CCN2C(=O)c3cccnc3C2=O)cc1 | -0.54 | /
CCN(CC)CCNS(=O)(=O)c1ccc2c(c1)CC(C)N2C(=O)C1CC1 (centres undefined) | / | -0.22
COc1ccc(-c2nn(C)c3sc(C(=O)NC4CC4)cc23)cc1OC | -0.84 | /
CNC(=O)Cn1c(=O)c2cccn2c2cccnc21 | / | -0.29
O=C1NC(c2ccc(OCc3ccccc3)cc2)C(C(=O)c2cccs2)C(O)(C(F)(F)F)N1 (centres undefined) | 1.09 | /
O=S(=O)(NCC(c1ccco1)N1CCN(c2ccccc2)CC1)c1ccc2c(c1)OCCO2 (centres undefined) | / | 1.31
Cc1cc(NC(=O)CSc2nc3nccnc3c(=O)n2CC2CCCO2)n[nH]1 (centres undefined) | -0.97 | 1.23
CC(C)(C)c1cc(C(=O)NNC(=O)c2ccc(C(F)(F)F)cc2)no1 | -0.55 | /
Cc1nc2sccn2c1C(=O)NN | 15.1* | /
Cn1c(=O)c2c(nc(CN3CCN(Cc4ccccc4)CC3)n2CC(=O)c2ccccc2)n(C)c1=O | -0.99 | /
Cc1cnc(N2CCN(NC(=S)Nc3cccnc3)CC2)c(Cl)c1 | -0.67 | /
CC(NS(=O)(=O)c1ccc(F)cc1)c1nc(-c2ccc(C(C)(C)C)cc2)no1 (centres undefined) | 0.02 | 1.38
c1ccc(Cn2c(NCc3ccco3)nc3ccccc32)cc1 | -0.09 | 0.94
Cc1ccc(C(O)CSc2nccn2C)cc1 (centres undefined) | -2.01 | -0.58
CC1Cc2nc(SCC(=O)N3CCCc4ccccc43)n(C)c(=O)c2S1 (centres undefined) | -0.07 | /
CCN(CC)c1ccc2c(c1)OC(N)=C(C#N)C2c1cccc(OC)c1 (centres undefined) | -1.03 | -7.68
CCOC(=O)c1ccc(OC(=O)CCCCCN=C(N)N)cc1 | / | 0.1
O=C(Nc1cccc(-c2cn3ccsc3n2)c1)c1cccs1 | -1.3 | /
N#CC1=C2SCN(c3cccc(Cl)c3)CN2C(=O)CC1c1ccccc1 (centres undefined) | 9.15* | -1.98
Cc1cc(C)nc(SCc2nnc(SCC(N)=O)n2-c2ccc(F)cc2)n1 | -0.59 | 3.7

Next compounds.
SMILES | CDC25B-CDK2 inh | HIV TAR-Tat
CCOC(=O)N1CCN(C(=O)c2nn(C)c3c2COc2ccccc2-3)CC1 | -0.49 | 0.99
Cc1ccc(Nc2nc3ccc(Cl)cc3n3cnnc23)cc1F | -1.51 | 1.58
CCC(CC)c1nn2c(=O)cc(CN3CCCc4ccccc43)nc2s1 | / | -2.78
Cc1ccc(-c2cnc(C3CC3)o2)cc1S(=O)(=O)Nc1cccc(F)c1 | / | 0.67
CC1C(=O)c2ccc([N+](=O)[O-])cc2OC1O (centres undefined) | -2.4 | /
Cc1cc(=O)c2c(=O)oc3ccccc3c2o1 | -1.75 | /
O=c1c2[nH]c3ccc(F)cc3c2ncn1Cc1ccc(F)cc1 | -0.05 | 0.68
Cc1nn(CCCC(=O)N2CCCC2)c(=O)c2nn(-c3ccccc3)c(C)c12 | / | 0.5
Cc1[nH]c(C)c(S(=O)(=O)N2CCOCC2)c1C(=O)N1CCCC1 | / | 0.08
O=C1NCCCCC1Nc1c([N+](=O)[O-])cc(C(F)(F)F)cc1[N+](=O)[O-] (centres undefined) | -0.62 | /
CCOC(=O)C(CC)Sc1ccc2nnc(-c3ccc(F)cc3)n2n1 (centres undefined) | -4.76 | /
Cn1c(C(=O)NCCc2cccs2)c(N2CCCC2=O)c2cc(F)ccc21 | / | -0.07
O=[N+]([O-])/C=C/c1cccs1 | -1.02 | /
CCNc1nc(C(=O)O)nc(N2CCOCC2)n1 | 0.84 | 0.95
S=c1[nH]nc2c3ccccc3c(-c3ccccc3)nn12 | -2.84 | /
OCCCNCC(O)CN1c2ccccc2Sc2ccccc21 (centres undefined) | -5.26 | 2.01
COc1ccc(OC)c(NC(=O)Cn2ncn3nc4c(c3c2=O)CCCC4)c1 | / | 0.39
CC1=C(c2ccc(Cl)cc2)S(=O)(=O)NC1=NCc1ccc(Cl)cc1 | -20.9 | 0.58
CCOC(=O)c1cnn(-c2ccc(C(=O)O)cn2)c1N | -1.6 | -0.71
N[C@@H]1[C@@H](O)[C@H](O)[C@@H](CO)O[C@H]1O | / | 0.23
Cc1nc(SCC(=O)c2ccc(Cl)cc2)n[nH]1 | -1.2 | -0.12
CCOCCCN1C(=O)c2cc3sc(CC)cc3n2CC1(C)C(=O)NC1CCCCC1 (centres undefined) | -0.54 | 1.59
Cc1ccc(NC(=O)NNC(=O)c2cc3ccc4ccccc4c3s2)cc1 | -3.05 | /
O=C(O)c1sc2c(cnc3cc4c(cc32)OCO4)c1-c1ccccc1 | -1.1 | -0.35
Cc1cc2nccc(-c3cccnc3)n2n1 | -1.43 | /

(continued)
SMILES | CDC25B-CDK2 inh | HIV TAR-Tat
CN1C(C(=O)N2CCN(c3ccccc3)CC2)=CC(c2ccc3c(c2)OCO3)=NS1(=O)=O | -1.95 | 0.18
CCCC12CN3CC(CCC)(CN(C1)C3c1c(C)[nH]c(=O)[nH]c1=O)C2=O (centres undefined) | -2.46 | 0.98
CCN1CCN(C(c2cccs2)C(C)NC(=O)c2ccco2)CC1 (centres undefined) | -2.11 | /
CC(=O)N1c2ccc(S(=O)(=O)Nc3ccc(F)cc3)cc2CC1C (centres undefined) | / | 1.12
CC1C(=O)Nc2ccc(S(=O)(=O)N3CCN(c4ncccn4)CC3)cc2NC1=O (centres undefined) | -1 | 0.81
CC(C)(C)NC(=O)Cn1c(=O)oc2cc(S(=O)(=O)N3CCCCCC3)ccc21 | -0.75 | /
Nc1c(Nc2cccc(C(=O)O)c2)c2ccccc2oc1=O | -0.3 | /
CCCOC(=O)C1=C(C)Nc2nnnn2C1c1ccccc1OCC (centres undefined) | -0.62 | -1.26
OCCCNc1nc2nonc2nc1Nc1ccccc1 | -1.01 | -0.05
Cc1ccc(-c2cc(C(F)(F)F)n3nc(C(=O)O)cc3n2)cc1 | -2.67 | 1.29
O=C(NCCC1=CCCCC1)c1cnc2sc3c(n2c1=O)CCCC3 | / | 0.7
CC(C)(O)CC[C@@H](O)[C@](C)(O)C1CC[C@@]2(O)C3=CC(=O)C4C[C@@H](O)[C@@H](O)C[C@]4(C)C3CC[C@]12C (some centres undefined) | / | 0.36
CC(C)(C)NC(=O)N1CCC(Nc2nccc(C(F)(F)F)n2)CC1 | -1.46 | /
Cc1nn2c(=O)cc(CSc3nnc(-c4ccc(Cl)cc4)o3)nc2s1 | 0.08 | 2.09
O=C(Nc1ccc(Br)cc1F)c1nc2ccccc2nc1Cl | -0.64 | 0.93
O=C(C1CCN(C(=O)C2(n3cccc3)CCCCC2)CC1)N1CCOCC1 | -1.7 | 2.04
Nc1nnc(SCC(=O)n2c3ccccc3c3ccccc32)s1 | -1.44 | 2.22
Cc1c(NC(=O)CN2C(=O)C3C4C=CC(C4)C3C2=O)c(=O)n(-c2ccccc2)n1C (centres undefined) | -1.32 | /
COc1ccc(OC)c(NC(=O)CSc2nc3c(cc2C#N)CCCC3)c1 | -0.83 | 0.52
COC(=O)C[C@@H]1C2(C)C(=O)[C@@H](CC3C2CC[C@]2(C)C3CC(=O)O[C@H]2c2ccoc2)[C@H](OC(C)=O)C1(C)C (some centres undefined) | / | 4.03
Fc1cc(Br)ccc1CSc1nc2ccncc2[nH]1 | 0.25 | 1.43
c1cc(-c2nnc3scnn23)ccn1 | 1.11 | 0.76
Cc1ccc(C)c(NC(=O)C2CC3CSCN3C23C(=O)Nc2ccccc23)c1 (centres undefined) | / | -1.13
COc1ccccc1-c1nnc(SC)n1-c1ccccc1 | -1.13 | /
Cc1ccc(NC(=O)NCc2noc3ccc(C)cc23)nc1 | / | 0.28

The listing continues.
SMILES | CDC25B-CDK2 inh | HIV TAR-Tat
O=C(NCC1CCCO1)C1CCN(S(=O)(=O)c2cccc3nonc23)CC1 (centres undefined) | -0.6 | 1.39
CCOc1ccc2c(c1)C1(SC(NC(C)=O)=NN1C(C)=O)C(=O)N2C(C)=O (centres undefined) | -2.42 | /
Cc1nc(-c2csc(S(=O)(=O)Nc3ccc4c(c3)OCO4)c2)no1 | / | 0.77
CCOC(=O)c1oc2ccc(S(=O)(=O)Nc3ccc4nc(NC(C)=O)sc4c3)cc2c1C | / | 0.64
COc1ccc(NC(=O)c2nc(-n3cnnc3)ccc2Br)cc1 | / | 2.77
CC(=O)OC1C([N+]2(C)CCCCC2)C[C@H]2C3CC[C@H]4C[C@H](OC(C)=O)C([N+]5(C)CCCCC5)CC4(C)[C@H]3CCC12C (some centres undefined) | / | 0.81
CCOc1ccc(NS(=O)(=O)c2ccc(-c3cc(C)[nH]n3)s2)cc1 | / | 0.55
CCOC(=O)c1cc(NC(=O)N(C(C)C)C2CCN(C)CC2)c(C)nc1C | 0.77 | 0.82
CCOC(=O)N1CCN(S(=O)(=O)c2ccc(C)cc2)C1 | -2.09 | 0.91
C=CCn1ccc2cc(S(=O)(=O)N3CCCN(S(=O)(=O)c4ccccc4)CC3)ccc21 | -3.46 | -0.43
Cc1cc(N2CCN(C(=O)c3ccco3)CC2)c2nncn2n1 | -0.96 | 0.7
COCc1nc2sc(C)c(-c3ccccc3)c2c(=O)[nH]1 | -1.96 | 0.33
CCOC(=O)c1c(C)[nH]sc1=S | 0.05 | /
CCCN(CCC)CCNC(=O)c1nn(C)c2c1COc1ccccc1-2 | -1.58 | 1.77
COc1cccc(C2CC(c3ccc(SC)cc3)n3nnnc3N2)c1 (centres undefined) | / | 2.01
CCOC12NC(=O)CC(=O)N1C(c1ccccc1)=CS2 (centres undefined) | -2.35 | /
Cc1ccc(S(=O)(=O)NC(C)c2nc(-c3ccccc3C)no2)cc1 (centres undefined) | 0.75 | 1.82
COc1cc(NS(=O)(=O)c2ccc(N3CCCC3=O)cc2)cc(OC)c1 | / | 0.63
Fc1ccc(CNc2nc(-c3ccccc3)no2)cc1 | / | 0.73
Cc1cc(C(N)=O)c(C(F)(F)F)o1 | -1.3 | /
O=C(Nc1cc(C(F)(F)F)ccc1N1CCOCC1)c1sc2ccccc2c1Cl | 0.17 | /
CCc1ccc(N2CSC3=C(C#N)C(c4cccc(F)c4)CC(=O)N3C2)cc1 (centres undefined) | 5.18* | 0.58
COc1cc(C2/C(=C(/O)c3ccc(C)cc3)C(=O)C(=O)N2c2cccnc2)ccc1O (centres undefined) | -0.49 | -0.31
CCOC(=O)C1=C(C)N=C2SCCC(=O)N2C1c1ccccc1F (centres undefined) | -1.97 | 1.53
O=C(CCCN1C(=O)c2cccnc2Oc2ccc(Cl)cc21)N1CCOCC1 | / | 1.33

The listing continues:
SMILES | CDC25B-CDK2 inh | HIV TAR-Tat
O=C(O)c1cc(N2CCN(Cc3ccccc3)CC2)nc2ccccc12 | / | 2.69
Cc1nn(-c2ccccc2)c2c1N(CCCC(=O)O)C(=O)CS2 | 0.63 | 0.61
Cc1cccc(Nc2c(-c3ccc(C)o3)nc3cnccn23)c1 | -1.08 | /
O=C(NCCN1CCCC1)C1CCN(c2ccc(F)cc2)C1=O (centres undefined) | / | -0.61
COc1ccc(S(=O)(=O)n2nc(OC(=O)c3ccco3)cc2N)cc1 | 4.49 | -0.84
CCc1ccc(S(=O)(=O)Nc2cc(-c3c(O)ccc4ccccc34)c(O)c3ccccc23)cc1 | 0.58 | /
COc1cccc(NS(=O)(=O)c2ccc3[nH]c4c(c3c2)CCCCCC4)c1 | / | 0.46
CCc1ccc(S(=O)(=O)NCCc2csc3nc(-c4ccccc4F)nn23)s1 | / | 1.3
CSc1sc(SC)c(CCl)c1CCl | 1.64 | /
COC(=O)C1=C(O)CSC1=Nc1ccccc1 | -1.72 | -1.02
